High-throughput results (PubChem)
BJeLR viability: lowers viability of BJeLR cells | AID 2275 | actives 0.64% (n = 30,000) | viability loss activity score, % (test concentration not listed) | BJeLR fibroblasts viability, CellTiterGlo ATP luminescence, 48 h; HRASV12, hTERT and SV40 LT/ST transformed; in the data active = viability loss activity score above about 50%; about a fifth of its hits are not listed in these tables;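 note: higher score means fewer live cells and less ATP luminescence; stock transfer was 50 or 100 nL into about 30 µL; 0% = vehicle wells and 100% = a reference killing control; one replicate is shown; the record names a cut of 85%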
A1 inhib: blocks A1 activity | caspase activation, % (no concentration beside the values) | actives 0.51% (n = 21,000) | MEF A1-2A-BIM cells, caspase-Glo luminescence, 3 h; percent of clofoctol signal, DMSO as zero;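 active = most replicate scores above 10, or exactly half above 10 with mean activity above 10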;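 note: effector caspase 3 and 7 activity cleaving a DEVD luciferin substrate; 50 nL library stock added to about 30 µL; numbers are from one replicate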
* = called active by the depositor; . = no result given. The list is partial (hit frequency here may not be typical).

SMILES	BJeLR viability	A1 inhib
CC1(C)CC(=O)C2=C(C1)Nc1ccccc1N(C(=O)C(F)(F)F)C2c1ccc(Cl)cc1Cl (centres undefined)	1.2	1.5
O=C1CCCC2=C1C(c1ccccc1)NC(=S)N2 (centres undefined)	0.4	.
CCOC(=O)CSc1nc(-c2ccc(OC)cc2)cc(C(F)(F)F)n1	3.5	0.2
c1ccc(N=C(Nc2ccccc2)N2CCOCC2)cc1	-0.6	-1.0
C[C@H](CO)N1C[C@H](C)[C@H](CN(C)S(=O)(=O)c2cn(C)cn2)Oc2ccc(NS(=O)(=O)c3cn(C)cn3)cc2C1=O	-4.2	-0.3
O=S(=O)(NCc1ccc(Cl)cc1)c1cnc[nH]1	1.0	.
C[C@H]1CN([C@@H](C)CO)C(=O)c2cccc(NS(C)(=O)=O)c2O[C@H]1CN(C)Cc1ccc(-c2ccccc2)cc1	-0.2	.
COc1ccc(OC)c2c(C)cc(=O)[nH]c12	15.0	0.7
C[C@H](CO)N1C[C@H](C)[C@H](CN(C)Cc2ccc(Cl)c(Cl)c2)Oc2ccc(NC(=O)Cc3cn(C)c4ccccc34)cc2C1=O	-1.2	0.3
COc1ccc(/C=C/c2cc(OC)cc3c2CCC(C)(C)O3)cc1	-3.2	-0.3
C[C@H](CO)N1C[C@H](C)[C@H](CN(C)CC2CCCCC2)Oc2ccc(NS(=O)(=O)c3cn(C)cn3)cc2C1=O	1.4	0.5
C[C@@H]1CN([C@@H](C)CO)C(=O)c2cccc(NC(=O)c3ccncc3)c2O[C@H]1CN(C)C(=O)Nc1cccc2ccccc12	-5.6	.
C=CCn1c(-c2ccccc2)n[nH]c1=S	-4.0	0.8
C[C@H](CO)N1C[C@H](C)[C@H](CN(C)C(=O)Nc2ccccc2)Oc2ccc(NS(=O)(=O)c3ccccc3)cc2C1=O	-3.6	0.7
C[C@H]1CN([C@@H](C)CO)C(=O)c2cc(N(C)C)ccc2O[C@@H]1CN(C)S(=O)(=O)c1cccs1	-0.8	1.2
C=Cc1cncc2c(=O)n3c(cc12)-c1[nH]c2ccccc2c1CC3	-4.5	-1.3
C/C(=N\O)C12CC3(C)CC(C)(CC(C)(C3)C1)C2	-5.2	2.1
Cc1noc(C)c1S(=O)(=O)Nc1cccc2c1O[C@H](CN(C)C(=O)NC(C)C)[C@H](C)CN([C@H](C)CO)C2=O	0.0	.
CN=C(NC#N)NCCSCc1nc[nH]c1C	-2.6	0.1
COCCn1c(-c2ccccc2)nc(=S)c2c1CC(C)(C)OC2	-1.0	0.0
C[C@@H]1CN([C@@H](C)CO)C(=O)c2cccc(NS(C)(=O)=O)c2O[C@H]1CN(C)Cc1ccc(C(=O)O)cc1	-3.4	.
C[C@@H]1CN([C@H](C)CO)C(=O)c2cccc(NC(=O)c3cnccn3)c2O[C@H]1CN(C)Cc1ccc(Oc2ccccc2)cc1	-1.7	.
COc1nc(Oc2ccc(/C=N/O)cc2)nc(N(C)C)n1	4.7	0.6
COc1ccc(NC(=O)Nc2ccc3c(c2)C(=O)N([C@@H](C)CO)C[C@H](C)[C@H](CN(C)Cc2ccc(C(=O)O)cc2)O3)cc1	0.5	-0.9
COc1ccc2cc3cc(C(=O)N(C)c4cccc(C(F)(F)F)c4)oc3nc2c1	8.4	.
COC(=O)c1c[nH]c(=S)n1C	1.6	0.4
Cc1nc2c(C)cccn2c1C(Nc1ccc(F)cc1)c1ccccc1 (centres undefined)	-4.4	.
CC(C)NC(=O)N(C)C[C@H]1Oc2ccc(NC(=O)C3CC3)cc2C(=O)N([C@H](C)CO)C[C@H]1C	0.4	0.5
O=c1c(O[C@@H]2O[C@H](CO)[C@@H](O)[C@H](O)[C@H]2O)c(-c2ccc(O)c(O)c2)oc2cc(O)cc(O)c12	-9.9	0.4
Clc1ccc2nc(-c3cccnc3)c(Nc3ccccc3)n2c1	-3.0	.
CCOC(=O)c1csc(N)n1	3.9	0.2
C[C@H](CO)N1C[C@H](C)[C@H](CN(C)Cc2ccc(C(=O)O)cc2)Oc2ccc(NC(=O)Nc3ccc4c(c3)OCO4)cc2C1=O	-3.1	1.0
CCN(CC)C(=O)N1CCN(C)CC1	1.4	0.3
CC(C)NC(=O)N(C)C[C@@H]1Oc2c(NC(=O)c3cnccn3)cccc2C(=O)N([C@@H](C)CO)C[C@@H]1C	5.3	.
O=P(Cc1ccccc1)(c1ccccc1)N(Cc1cccs1)CC1CCCO1 (centres undefined)	4.9	0.8
CCOC(=O)C1=C(C)N(CCO)C(=O)NC1c1ccc(O)cc1 (centres undefined)	-5.6	0.4
Cc1nn2c(c1-c1ccccc1)NC(C(F)(F)F)(C(F)(F)F)NC2=O	0.1	0.4
C[C@@H]1O[C@H]2Oc3c(-c4ccc(O)c(O)c4)oc4cc(O)c(c(O)c4c3=O)-c3cc(ccc3O)/C=C\C(=O)OC[C@H]3O[C@@H](O[C@H]([C@H]1O)[C@H]2O)[C@H](O)[C@@H](O)[C@@H]3O	-1.7	0.7
COc1ccc(S(=O)(=O)N(C)C[C@@H]2Oc3c(NS(=O)(=O)c4ccccc4)cccc3C(=O)N([C@H](C)CO)C[C@@H]2C)cc1	-2.1	.
O=C1CCS(=O)(=O)c2ccccc2N1Cc1ccccc1	1.2	-0.7
COc1ccccc1N1CCN(CCn2c(=O)[nH]c3c([nH]c4ccccc43)c2=O)CC1	-4.8	-0.3
O=C(NCc1cccs1)c1ccc2c(c1)N(Cc1ccccc1)C(=O)c1ccccc1S2	2.7	0.9
O=c1cc(-c2ccccc2)oc2cc(O)ccc12	-3.6	-3.4
C=C1C2(C)OC(=O)C34OC2C2=C(CO)C5(CCC2(C)C13C(=O)OC4C)C(O)CC(=O)OC5(C)C (centres undefined)	-4.7	-0.7
COc1ccccc1CNC(=O)C(C)n1cccc1C(=O)c1ccccc1 (centres undefined)	-1.2	0.9
C=C1C(=O)O[C@@H]2C[C@H](C)[C@@H]3CC(=O)C(C)=C3C[C@H]12	-0.2	-0.2
C[C@H]1CN([C@@H](C)CO)C(=O)c2cc(NC(=O)CCN3CCOCC3)ccc2O[C@@H]1CN(C)Cc1ccncc1	3.0	-0.1
C[C@@H]1CN([C@@H](C)CO)C(=O)c2cccc(NS(=O)(=O)c3ccc(Cl)cc3)c2O[C@@H]1CN(C)C(=O)Nc1ccc(C(F)(F)F)cc1	-0.8	.
Cc1ccsc1CNC(=O)c1ccc(Cl)cc1	3.4	.
C[C@@H]1CN([C@H](C)CO)C(=O)c2cc(NS(=O)(=O)c3cn(C)cn3)ccc2O[C@@H]1CN(C)S(C)(=O)=O	-2.0	2.0

Whole records from above.
`Cc1ccsc1CNC(=O)c1ccc(Cl)cc1` is listed as BJeLR viability = 3.4; A1 inhib = .
`COc1ccccc1N1CCN(CCn2c(=O)[nH]c3c([nH]c4ccccc43)c2=O)CC1` is listed as BJeLR viability = -4.8; A1 inhib = -0.3

The list goes on.
SMILES	BJeLR viability	A1 inhib
Cc1noc(C)c1-c1nc(CSc2ccccc2)no1	1.5	-0.4
COc1ccc(C2C(C(=O)NCc3ccc(F)cc3)CCC(=O)N2c2ccc3c(c2)OCO3)cc1 (centres undefined)	0.4	.
Cc1cc(C)c2c(n1)sc1c(=O)n(Cc3ccccc3Cl)nnc12	1.1	-0.3
C[C@@H]1CN([C@H](C)CO)C(=O)c2cc(NC(=O)CCC(F)(F)F)ccc2O[C@@H]1CN(C)Cc1ccc(C(=O)Nc2ccccc2N)cc1	0.9	.
C[C@H]1CN([C@@H](C)CO)C(=O)c2cccc(NC(=O)c3ccc(-c4nccs4)cc3)c2O[C@@H]1CN(C)C(=O)NC1CCCCC1	-8.7	.
COc1ccc(CN(C)C[C@@H]2Oc3ccc(NC(=O)Nc4ccc5c(c4)OCO5)cc3C(=O)N([C@@H](C)CO)C[C@H]2C)cc1	2.2	-0.2
C[C@H](CO)N1C[C@H](C)[C@H](CN(C)C(=O)NC2CCCCC2)Oc2ccc(NC(=O)CCCN(C)C)cc2C1=O	1.4	0.5
Cc1noc(C)c1NC(=O)N(C)C[C@H]1Oc2c(NS(C)(=O)=O)cccc2C(=O)N([C@H](C)CO)C[C@H]1C	2.1	.
C[C@H]1CN([C@@H](C)CO)C(=O)c2cccc(NC(=O)Nc3cccc4ccccc34)c2O[C@H]1CN(C)CC1CC1	-1.0	.
COc1ccc(C(=O)Nc2ccc3nc(N4CCN(c5ncccn5)CC4)cc(C)c3c2)c(OC)c1	12.4	.
CC1=[N+]([O-])C(C)(C)C(c2ccc(Cl)cc2)=[N+]1[O-]	-0.6	.
O=C(c1ccc2c(c1)N(Cc1ccccc1)C(=O)c1ccccc1S2)N1CCCC1	0.1	0.5
Cc1ccc(S(=O)(=O)N(C)C[C@H]2Oc3c(NC(=O)C4CC4)cccc3C(=O)N([C@@H](C)CO)C[C@H]2C)cc1	1.6	.
O=C(O)CNC(=O)Cn1cnc2sc3c(c2c1=O)CCCC3	-0.1	1.2
NC(=O)CSc1nc(-c2ccccc2Cl)ns1	-4.7	-4.8
CN(C)C(=O)COc1cc2oc(=O)c3c(c2cc1Cl)CCC3	0.2	-0.7
Cc1noc(C)c1S(=O)(=O)N(C)C[C@@H]1Oc2c(NS(=O)(=O)c3cccs3)cccc2C(=O)N([C@H](C)CO)C[C@@H]1C	1.6	.
O/N=C/c1ccc(Cl)s1	0.6	-0.7
CCC1Oc2ccccc2N(CC(=O)N2CCOCC2)C1=O (centres undefined)	-0.9	1.0
Clc1cccc(-n2cc(-c3ccccc3)c3c(NCC4CCCO4)ncnc32)c1 (centres undefined)	-1.4	-0.5

Entries listed so far with a COOH group:
SMILES	BJeLR viability	A1 inhib
C[C@@H]1CN([C@@H](C)CO)C(=O)c2cccc(NS(C)(=O)=O)c2O[C@H]1CN(C)Cc1ccc(C(=O)O)cc1	-3.4	.
COc1ccc(NC(=O)Nc2ccc3c(c2)C(=O)N([C@@H](C)CO)C[C@H](C)[C@H](CN(C)Cc2ccc(C(=O)O)cc2)O3)cc1	0.5	-0.9
C[C@H](CO)N1C[C@H](C)[C@H](CN(C)Cc2ccc(C(=O)O)cc2)Oc2ccc(NC(=O)Nc3ccc4c(c3)OCO4)cc2C1=O	-3.1	1.0
O=C(O)CNC(=O)Cn1cnc2sc3c(c2c1=O)CCCC3	-0.1	1.2

Additional results follow:
SMILES	BJeLR viability	A1 inhib
O=[n+]1cc(-c2ccc(F)cc2)n([O-])c2c1CCC2	2.5	-0.9
C[C@@H]1CN([C@@H](C)CO)C(=O)c2cc(NS(=O)(=O)c3ccccc3)ccc2O[C@@H]1CN(C)C	-0.6	0.1
Cc1ccc(S(=O)(=O)N(C)C[C@@H]2Oc3c(NC(=O)c4nc5ccccc5s4)cccc3C(=O)N([C@@H](C)CO)C[C@@H]2C)cc1	18.9	.
CC(=O)N1N=C(c2ccc3ccccc3c2)OC12CCCC2	2.9	0.4
COc1ccc(C(=O)O[C@H]2CC(C)=CC[C@]3(C)[C@@H]2[C@](O)(C(C)C)C[C@@H]3O)cc1	-0.2	-0.2
O=C(CSCc1cnn(-c2ccccc2)c1-n1cccc1)N1CCN(c2ccc(F)cc2)CC1	3.7	-0.1
O=C(CCc1ccccc1)Nc1cccc(NC(=O)CCc2ccccc2)n1	-1.8	0.9
Cn1nc(C(=O)N2CCN(c3cccc(C(F)(F)F)c3)CC2)c2c1-c1ccccc1OC2	1.5	1.0
C[C@@H]1CN([C@H](C)CO)C(=O)c2cc(NS(=O)(=O)c3cccs3)ccc2O[C@@H]1CN(C)Cc1ccccc1	7.5	0.0
COc1ccc(S(=O)(=O)Nc2ccc3c(c2)C(=O)N([C@H](C)CO)C[C@H](C)[C@H](CN(C)C(=O)Nc2ccc(C(F)(F)F)cc2)O3)cc1	0.1	-0.3
CCOC(=O)c1csc(NC(=O)c2ccc(S(=O)(=O)N(CC)CC)cc2)n1	-0.8	0.7
Cc1ccc(S(=O)(=O)Nc2ccc3c(c2)C(=O)N([C@H](C)CO)C[C@H](C)[C@@H](CN(C)Cc2ccc4c(c2)OCO4)O3)cc1	-3.3	0.3
O=C(Cn1cc(-c2ccccc2)nc1SCc1ccccc1)c1ccccc1	-5.0	0.2
C[C@H](CO)N1C[C@H](C)[C@@H](CN(C)S(=O)(=O)c2ccc(F)cc2)Oc2c(NC(=O)Nc3cccc4ccccc34)cccc2C1=O	-2.6	.
COc1cc(S(=O)(=O)N2CCCCCCC2)ccc1-n1cnnn1	-2.5	0.3
CCCCN(C)C(=O)Cc1c(C(=O)O)[nH]c2ccc(Cl)cc12	1.9	.
CC(C)S(=O)(=O)c1cscc1NC(=O)c1ccc(-c2cc(C(F)(F)F)nn2C)s1	2.2	-1.5
Cc1ccc(S(=O)(=O)N(C)C[C@H]2Oc3c(NC(=O)c4nc5ccccc5s4)cccc3C(=O)N([C@@H](C)CO)C[C@H]2C)cc1	9.5	.
CCc1c(O)c(Cc2ccccc2)c(=O)n(-c2nccs2)c1-c1ccccc1	2.5	-1.2
O=c1cc(O)n(Cc2ccco2)c(=S)[nH]1	2.9	0.0
NNC(=O)CCCSc1nc2ccccc2s1	3.7	-1.3
O=C(O)c1ccccc1C(=O)OCc1ccccc1	6.1	-0.9
COc1ccc(N2C(=O)CC(Cc3ccccc3)C2=O)cc1 (centres undefined)	5.7	0.7
C[C@H](CO)N1C[C@H](C)[C@H](CN(C)CC2CC2)Oc2c(NC(=O)C3CC3)cccc2C1=O	12.0	.
Clc1cc(Cl)cc(Oc2nc(-c3ccccc3)ns2)c1	5.9	0.4
O=C(O)c1cc(C23CC4CC(CC(C4)C2)C3)ccc1O	1.9	0.1
